# Source: PubChem BioAssay (National Center for Advancing Translational Sciences (NCATS))
# ClpP mod: qHTS Assay for Activators of ClpP; ATP-dependent Clp protease proteolytic subunit (Bacillus subtilis (strain 168)), P80244; purified B. subtilis ClpP, FRET peptide cleavage, 20 min; Potency, µM (doses to about 57.5 µM), for the others: top-dose activity change, negative = active; actives 1.9% (n = 340,000); active = well fitted falling curve with a large enough effect; inconclusive = small, poorly fitted or top-dose-only effect; inactive = no such curve, though single readings can be large or run the other way; further: potency means the concentration at half of the fitted maximal effect; the source files actives as falling curves though it sought activators and does not explain the sign; nearly all actives have a fitted effect of over 65% in size; many hits overshoot -100%
# Target sequence (P80244 whole entry, looked up): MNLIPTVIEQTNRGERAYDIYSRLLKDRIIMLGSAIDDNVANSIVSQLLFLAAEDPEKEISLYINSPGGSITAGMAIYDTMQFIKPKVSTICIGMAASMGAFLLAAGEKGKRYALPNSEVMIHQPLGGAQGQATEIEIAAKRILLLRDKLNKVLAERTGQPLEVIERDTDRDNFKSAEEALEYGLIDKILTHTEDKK
#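 FRET quenching reversal measured ClpP activation: 10 microg/mL B. subtilis ClpP at pH 8 with the FRET-FV decapeptide, read at 430 nm after 320 nm excitation. The 20-min minus 0-min signal was scaled between DMSO/no-enzyme wells and ADEP (5.8 microM final).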
# gsp antagonist: antagonizes gsp, the McCune-Albright syndrome mutation | gsp-mutant cells, cAMP HTRF, 30 min; control for the full effect not named in the record | Potency, µM (series often up to 76.9 µM), for the others: at the top dose activity change, negative = inhibition, usual class: inhibitors | actives 0.4% (n = 340,000) | AID 624288; active = falling curve of any shape with a large fitted effect; inconclusive = falling curve, mostly with a smaller effect; inactive = flat or rising curve; cell line not stated here;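 further: intracellular cAMP measured with PDE inhibitor Ro 20-1724 present during compound exposure; potency means the concentration at half of the fitted maximal effect; on the % scale 0 is the no-effect control and ±100 the full control effect; nearly all actives have a fitted effect of over 65% in size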
#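 G418-selected cells were plated in DMEM/10% FBS for 16-24 h at 37C, then treated with compounds plus the PDE inhibitor […] (300 uM solution added) for 30 min at 37C. Intracellular cAMP was measured by HTRF after 30 min lysis at room temperature.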
# TRPV1 potentiator: enhances activation of the human vanilloid receptor TRPV1. Q8NER1. TRPV1-expressing cells, Fluo-8 calcium influx, capsaicin EC20 potentiation; host cell line not named in the record; control for the full effect not named in the record. potentiation, % at 8.33 µM. actives 0.02% (n = 320,000). AID 540277; active means potentiation above 80%; inconclusive means 30% to 80%; inactive means below 30%; further: 0% is about no effect
#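 TRPV1-expressing cells were cultured overnight at 35.5C and loaded with Fluo-8 calcium dye for 40 to 90 min at room temperature. After a 10 s baseline, compound was added and calcium influx was read kinetically for 3 min (ex 480/em 520 nm).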
# Sfp PPTase inh: blocks B. subtilis Sfp PPTase activity | actives 3.5% (n = 310,000) | Q9F4F7 | Biochemical Sfp PPTase activity, qHTS | Potency, µM, for the others: max response, negative = inhibition, most hits filed as inhibitors; active means well fitted inhibition curve with a large enough effect; inconclusive means small, poorly fitted or top-dose-only effect, or another doubt; inactive means no such curve, though single readings can be large or run the other way;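 further: the enzyme is Sfp with the accession as filed and its product quenches rhodamine fluorescence; potency means the concentration at half of the fitted maximal effect; 0% = enzyme reaction without inhibitor and -100% = no enzyme wells; top concentration of the series not given in the record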
#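 Reaction rates are the 30-min fluorescence difference (ex 525, em 598 nm) in wells containing 15 nM Sfp, 5 uM rhodamine-CoA and 12.5 uM BHQ-2-YbbR at pH 7.6 with 10 mM MgCl2.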
# gsp agonist: agonists of gsp mutant (McCune-Albright syndrome); actives 0.13% (n = 340,000); AID 624287; gsp mutant cells, cAMP HTRF, 30 min; control for the full effect not named in the record; Potency, µM (titrated, usually from 76.9 µM), for the others: at the highest dose activation (cAMP increase), actives largely listed as activators; active = well fitted activation curve with a large enough effect; inconclusive = small, poorly fitted or top-dose-only effect, or another doubt; inactive = no such curve, though single readings can be large or run the other way; cell line not stated here;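 further: phosphodiesterase inhibitor Ro 20-1724 added with compounds to block cAMP breakdown; potency means the concentration at half of the fitted maximal effect; nearly all actives have a fitted effect of over 60% in size; about a fifth of the inactives were tested at one dose only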
#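 Cells in DMEM/10% FBS with G418 were pretreated with compounds in DMSO plus […] (300 uM stock) for 30 min at 37C. cAMP was measured by HTRF (cAMP-d2 plus anti-cAMP antibody-K) after 30 min at room temperature.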
# Menin-MLL FL inh: menin-MLL binding inhibition, fluorescein peptide; Fluorescence polarization, fluorescein-MLL peptide displacement from menin; FP activity change, % at 61.4 µM; 290,000 tested, under 10 active; inconclusive = falling polarisation curve, or a change in total fluorescence; inactive = total fluorescence flat and polarisation flat or rising; no compound was filed as active; the % refers to the polarisation; negative = inhibition;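 further: % of control where 0% means no effect; inhibitors lower the polarisation; unlabelled MLL peptide was the positive control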
# D2 potentiator: positive allosteric modulators of human D2 dopamine receptor | DiscoveRx D2 beta-arrestin cells, luminescence, 90 min; 100% = 57 uM dopamine signal | actives 0.23% (n = 360,000) | AID 624464 | potentiation, % (test concentration not listed); active = potentiation of 50% or more; inconclusive = 30% to 50%; inactive = 30% or less;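 further: compound concentration not given in the record; tested on top of an EC20 dose of dopamine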
# Target sequence (P14416 whole entry, looked up): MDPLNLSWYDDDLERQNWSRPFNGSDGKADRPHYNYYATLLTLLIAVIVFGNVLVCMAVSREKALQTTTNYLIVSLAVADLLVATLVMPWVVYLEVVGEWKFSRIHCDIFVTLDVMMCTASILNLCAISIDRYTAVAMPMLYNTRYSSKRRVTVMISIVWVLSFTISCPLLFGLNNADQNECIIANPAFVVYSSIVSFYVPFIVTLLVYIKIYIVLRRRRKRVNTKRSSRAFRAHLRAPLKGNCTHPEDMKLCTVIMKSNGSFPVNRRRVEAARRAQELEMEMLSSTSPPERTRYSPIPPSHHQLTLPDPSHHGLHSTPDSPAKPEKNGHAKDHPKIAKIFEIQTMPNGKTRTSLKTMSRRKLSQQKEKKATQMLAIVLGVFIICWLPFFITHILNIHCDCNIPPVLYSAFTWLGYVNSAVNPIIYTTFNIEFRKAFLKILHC
#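 PathHunter D2 cells, attached overnight at 37 deg C, received compound in DMSO plus dopamine at EC20 (50 nM final) for 90 min at 37 deg C. Beta-arrestin recruitment was read as luminescence after 1 h with detection reagent at ambient temperature.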
# Active calls of the source: *; ? = inconclusive; nt = no result given; [ ] = dose if it differs, or a comment.
SMILES,ClpP mod,gsp antagonist,TRPV1 potentiator,Sfp PPTase inh,gsp agonist,Menin-MLL FL inh,D2 potentiator
O=C(C1CCCN(S(=O)(=O)c2cccnc2)C1)N1CCN(c2ccccn2)CC1 (stereo unspecified),3.9%,-6%,-7,-5%,14%,-3.5,-3
Cc1c(C(=O)Nc2ccc(S(=O)(=O)NCC3CCCO3)cc2)cccc1[N+](=O)[O-] (stereo unspecified),nt,4%,7,-3%,-40%[inhibitor],0.7,-8
CCOC(OCC)c1ccc(/C=C\c2nccc(N)n2)cc1,3.9%,5%,-21,-1%,27%,0.6,0
Fc1ccc(C2CCNCC2COc2ccc3c(c2)OCO3)cc1 (stereo unspecified),nt,17%,2,-2%,10%,4.4,-7
COc1ccc(CC(=O)N/N=C/c2ccc(-c3ccc(F)cc3)o2)cc1OC,?,-19%,-6,-6%,-27%[15.4 µM],0.7,-8
COc1ccc2c(c1)C1=NN(/C(C)=C/C(C)=O)C(c3ccc(F)cc3)C1CC2 (stereo unspecified),20µM*,-4%,10,-8%,28%,1.5,51*
NC(=O)C1CCN(C(=O)c2ccco2)CC1,-1.6%,5%,-21,-1%,28%,1.9,4
CC(OC(=O)c1cc(S(=O)(=O)N2CCOCC2)ccc1F)C(=O)NC1CCCCC1C (stereo unspecified),-1.2%,5%,5,19%,7%[15.4 µM],nt,-14
CSCCC(NC(=O)c1ccc(C)o1)C(=O)O (stereo unspecified),0.1%,3%[15.4 µM],-3,14%,-19%,3.1,-7
CS(=O)(=O)N(Cc1ccc(Cl)cc1)c1ccc(C(=O)NCC2CCCO2)cc1 (stereo unspecified),nt,-5%,5,4%,2%,-1.3,0
Cc1c(O)ccc(/C(Cc2ccc3ccccc3n2)=N\N)c1O,-4.6%,-14%,-15,12%,-23%,?,-13
CCSc1nc2[nH]ncc2c(=O)[nH]1,-3.2%,11%,7,10%,-8%,4.8,-4
COc1ccc([N+](=O)[O-])cc1NC(C)C,2.0%,-22%,-12,5%,-7%,1.7,-2
CN1CCc2c(sc3c2c(=O)n(-c2ccccc2)c2nnc(SCc4ccc(F)cc4)n32)C1,0.2%,0%,nt,nt,-23%,nt,-9
O=C(OCc1nnc(-c2ccc(Cl)cc2)o1)c1ccc(=O)n(Cc2ccccc2)n1,0.6%,-8%,-3,4%,?,-3.0,-11
S=c1nc2c(n[nH]1)c1ccccc1n2CCc1ccccc1,nt,1%,-1,-10%,-40%[inhibitor],1.9,-11
Cc1ccc(C)c(Cn2nnc3c(=O)[nH]c(C4CCCN(C(=O)CC(C)C)C4)nc32)c1 (stereo unspecified),0.6%,-10%,-5,-20%,13%,3.6,-17
O=c1cc(-c2ccccc2)nc(N2CCN(Cc3ccccc3)CC2)[nH]1,-1.5%,4%,3,1%,0%,2.6,-20
Cn1c(=O)c2[nH]c(CN(Cc3ccccc3)Cc3ccccc3)nc2n(C)c1=O,-0.4%,4%,-3,-6%,-13%,4.3,-23
Cc1ccc(NC(=O)Cn2nc(C(=O)O)c3ccccc3c2=O)cc1S(=O)(=O)N1CCCCC1,-1.4%,-11%,nt,nt,30%[15.4 µM],nt,-10
CCOC(=O)c1cccc(NC(=O)CSc2nnc(C)n2CC2CCCO2)c1 (stereo unspecified),nt,5%,3,23%,4%[15.4 µM],nt,-4
O=C(NCCCn1ccnc1)C(=O)NCC1OCCCN1S(=O)(=O)c1ccccc1 (stereo unspecified),-1.0%,8%,-3,13%,-51%[inhibitor],0.2,-7
CN(C)c1ccc(-n2cccc2/C=N/n2cnnc2)cc1,1.1%,6%,14,21%,-4%[15.4 µM],0.4,-5
O=C(Cn1c(=O)c2cccn2c2ccccc21)NCc1cccc(F)c1,nt,2%,9,-18%,-8%,nt,-6
CCCc1nc(SCC(=O)Nc2nc3c(s2)CCCC3)c2ccccc2n1,0.3%,1%,16,-2%,?,6.5,-2
# (further entries)
SMILES,ClpP mod,gsp antagonist,TRPV1 potentiator,Sfp PPTase inh,gsp agonist,Menin-MLL FL inh,D2 potentiator
CSCCC(NC(=O)COc1ccccc1)C(=O)N1CCN(c2ccccc2)CC1 (stereo unspecified),-2.3%,6%,-8,nt,-33%[inhibitor],nt,-19
C#CCOCCOCCOCCNc1nc(N2CCN(C(=O)C([C@@H](C)CC)n3cc(C(N)CC(C)C)nn3)CC2)nc(N2CCN(C(=O)[C@H](CCC(=O)O)n3cc(C(N)Cc4ccc(O)cc4)nn3)CC2)n1 (stereo partly specified),2.1%,5%,-1,14%,1%,-2.3,-2
Clc1ccccc1-c1nc(-c2ccc(Br)o2)no1,-1.6%,-6%,8,-6%,-18%,-2.2,0
CCN(C(=O)COC(=O)CCc1ccc(OC)cc1)c1c(N)n(Cc2ccccc2)c(=O)[nH]c1=O,0.7%,16%,4,nt,-22%,nt,11
Cc1nn(-c2ccccc2)c(C)c1NC(=O)COc1ccccc1C#N,0.9%,nt,nt,nt,-82%[inhibitor],nt,-11
COCCCn1c(C)nnc1SCc1ccc(C(C)(C)C)cc1,nt,7%,-8,4%,1%[15.4 µM],-8.6,0
CCCCc1ccc(NC(=O)NCc2cccnc2)cc1,0.5%,-3%,-5,13%,-20%,nt,-5
Cc1ccc(S(=O)(=O)Nc2ccccc2C(O)c2ccccc2)cc1 (stereo unspecified),-3.1%,-15%,-7,8%,6%[15.4 µM],3.5,-2
CNc1oc(/C=C/c2ccccc2)nc1C#N,-0.6%,-13%,-26,1%,?,1.4,10
O=C(NCC1CCCO1)c1cccc(Oc2ccc([N+](=O)[O-])cc2)c1 (stereo unspecified),1.1%,-8%,-30,8%,5%,nt,-10
CCOC(=O)c1c(N/N=C/c2cccnc2)n[nH]c1C,1.2%,7%,nt,-1%,-5%,1.2,-6
CCC1CCCCN1c1cc(C)nc2cc(-c3cccc(C)c3)nn12 (stereo unspecified),28µM*,-3%,-10,?,-4%,5.8,5
O=C(CCS(=O)(=O)c1ccc(Br)cc1)N1CCN(c2ccccc2Cl)CC1,-1.2%,-3%,-3,0%,-67%[inhibitor],5.7,-2
C=C(C)C(=O)OCCCCCCOc1ccc(C(=O)O)cc1,-0.5%,-4%,3,6%,-1%,4.6,-5
COC(=O)C1=C(C(=O)OC)[C@]2([C@@H]3CC=CCN[C@@H](Cc4ccccc4)C(=O)N3Cc3ccccc3)C=C[C@H]1O2,0.0%,-7%,nt,nt,nt,nt,-9
Cc1nn2c(nc(N3CCCCC3)c3ccccc32)c1C=O,13µM*,10%,-21,-26%,0%[15.4 µM],3.8,-5
CCOC(=O)CN1C(=O)S/C(=C/c2ccc3c(c2)n(C)c(=O)n3C)C1=O,-2.5%,-5%,5,2%,-10%,6.1,1
COc1ccc2cc(C(=O)C3CCCN(C(=O)c4snnc4C)C3)ccc2c1 (stereo unspecified),3.8%,?,-3,9%,-2%,-1.3,-6
OC[C@@H]1[C@@H](c2ccc(Cl)cc2)C(c2ccccc2)=NN1c1ccccc1,4.2%,-8%,nt,13%,nt,5.3[94.6 µM],-6
CCOc1c2ccc(C(=O)NCc3ccc(OC)cc3)cc2nn1CCOC,4.3%,1%,-11,7%,nt,1.4,-8
CCOC(=O)c1c(C)[nH]c(C)c1C(=O)COC(=O)c1ccc(Cl)nc1,nt,-5%,nt,nt,8%,nt,-2
CC(Sc1nccn1C)C(=O)Nc1ccccc1 (stereo unspecified),1.5%,5%,1,-8%,-4%,-1.0,-7
O=C(CCN1C(=O)c2ccncc2C1=O)Nc1ccc2c(c1)OCCO2,0.7%,11%,26,7%,3%,3.1,-6

# Filtered by structure: the compounds so far containing an NH in an aromatic ring.
SMILES,ClpP mod,gsp antagonist,TRPV1 potentiator,Sfp PPTase inh,gsp agonist,Menin-MLL FL inh,D2 potentiator
CCSc1nc2[nH]ncc2c(=O)[nH]1,-3.2%,11%,7,10%,-8%,4.8,-4
S=c1nc2c(n[nH]1)c1ccccc1n2CCc1ccccc1,nt,1%,-1,-10%,-40%[inhibitor],1.9,-11
Cc1ccc(C)c(Cn2nnc3c(=O)[nH]c(C4CCCN(C(=O)CC(C)C)C4)nc32)c1 (stereo unspecified),0.6%,-10%,-5,-20%,13%,3.6,-17
O=c1cc(-c2ccccc2)nc(N2CCN(Cc3ccccc3)CC2)[nH]1,-1.5%,4%,3,1%,0%,2.6,-20
Cn1c(=O)c2[nH]c(CN(Cc3ccccc3)Cc3ccccc3)nc2n(C)c1=O,-0.4%,4%,-3,-6%,-13%,4.3,-23
CCN(C(=O)COC(=O)CCc1ccc(OC)cc1)c1c(N)n(Cc2ccccc2)c(=O)[nH]c1=O,0.7%,16%,4,nt,-22%,nt,11
CCOC(=O)c1c(N/N=C/c2cccnc2)n[nH]c1C,1.2%,7%,nt,-1%,-5%,1.2,-6
CCOC(=O)c1c(C)[nH]c(C)c1C(=O)COC(=O)c1ccc(Cl)nc1,nt,-5%,nt,nt,8%,nt,-2
